NPYLR7 ag = activates Aedes aegypti NPYLR7 receptor; 270,000 compounds, 0.15% hits; activation, % at 10 µM; HEK293T NPYLR7/Galpha15, GCaMP6s calcium fluorescence; in the data active = activation above about 40%;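 also: 0% = vehicle and 100% = reference agonist at the receptor; some compounds past the cut are filed as inactive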
NPYLR7 ag max-min = also measured in NPYLR7 ag; calls as there; activation, %; measured here: Max-Min RFU normalised activation; some inactives read as strong as hits;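 span of the calcium signal over five minutes; 0% = vehicle and 100% = native peptide agonist; compound fluorescence can raise it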
The depositor's hits bear a star; & = joins results of further samples.

The opening 3 entries, to show the layout:
entry	SMILES	NPYLR7 ag	NPYLR7 ag max-min
1	COc1ccc(OC)c(C2CCCN2C(=O)C=Cc2ccc(F)cc2)c1 (stereo not drawn)	1	1
2	O=C(NCc1cccnc1Oc1ccccc1)c1ccc(-n2cnnc2)nc1	-8	-10
3	C#CCN(CC1CCCO1)C(=O)NC(c1ccccc1)c1nc(C(C)(C)C)cs1 (stereo not drawn)	4	12

Main list, from the start:
entry	SMILES	NPYLR7 ag	NPYLR7 ag max-min
1	COc1ccc(OC)c(C2CCCN2C(=O)C=Cc2ccc(F)cc2)c1 (stereo not drawn)	1	1
2	O=C(NCc1cccnc1Oc1ccccc1)c1ccc(-n2cnnc2)nc1	-8	-10
3	C#CCN(CC1CCCO1)C(=O)NC(c1ccccc1)c1nc(C(C)(C)C)cs1 (stereo not drawn)	4	12
4	Clc1ccc2c(Sc3nnnn3C3CCCC3)ccnc2c1	0	-3
5	CCCNC(=O)c1ccc2c(=O)n(-c3cc(C)cc(C)c3)c(SCC(=O)CC(=O)OC)nc2c1	2	7
6	Cc1ccsc1CNc1cccc(C(=O)N(C)C(C)c2ccon2)c1 (stereo not drawn)	14	3
7	CCc1nc2ccc(C(=O)N3CCN(C(=O)c4ccco4)CC3)cn2c1N(C)Cc1ccc(N(C)C)cc1	3	-3
8	CCCCCOc1ccc(NC(=O)C2OC3OC(C)(C)OC3C3OC(C)(C)OC23)cc1 (stereo not drawn)	-3	-6
9	O=C(NCc1n[nH]c2c1CCC2)c1coc2c1C(=O)CCC2	11	7
10	O=C(NCCN1CCN(c2nc(Cc3ccccc3)ns2)CC1)c1ccc(Br)cc1	7	15
11	CC(=O)c1cccc(-c2ccc(Cn3ccnc3)cc2)c1	8	4
12	CCC(C)N(Cc1ccccc1)S(=O)(=O)CCOC (stereo not drawn)	8	5
13	Cc1cccc(N2CCN(Cn3nc(C)n(-c4ccccc4)c3=S)CC2)c1C	-1	-3
14	Cc1ccccc1C1c2ccsc2CCN1C(C)C(=O)N1CCN(S(=O)(=O)Cc2ccccc2)CC1 (stereo not drawn)	8	0
15	CN(C)Cc1cc(-c2nccn2CCn2cccn2)ccc1O	8	3
16	O=C(NC1=N[C@@]23CO[C@H](c4ccccc4)C[C@@H]2CC(=O)[C@H]3S1)c1ccccc1	3	4
17	COCc1nc(-c2ccc(CN3CCN(C(=O)CNC(C)=O)CC3)cc2)no1	3	-2
18	N#Cc1ccc(-c2ccccc2)nc1SC(C(=O)O)c1ccccc1 (stereo not drawn)	-2	-10
19	Cn1ccc2ccc(C#N)cc21	3	5
20	CCCCCOc1nc(N)nc2nc(SCC(=O)c3ccccc3)cnc12	3	2
21	CC(N)=C(C#N)C(=O)CSc1nnc(-c2ccco2)n1C	-8	-8
22	O=C(Cc1csc(NC(=O)c2ccc[nH]c2=O)n1)NCCC1=CCCCC1	2	5
23	CCc1ccc2oc(-c3ccc(NC(=O)c4ccccc4OC)cc3)nc2c1	9	-6
24	COc1ccc(Nc2nnc(-c3cc4cc(Br)ccc4oc3=O)s2)cc1	-8	-11
25	COc1ncccc1CNC(=O)C1(c2cccc(Cl)c2)CCC1	-2	-5
26	COc1ccc(CN2CCn3nc(C(=O)N4CCc5ccccc5C4)cc3C2=O)cc1	11	10
27	Cc1cc(C)c(NC(=O)Cn2nc(-c3ccco3)c3sc(N4CCOCC4)nc3c2=O)c(C)c1	-4	-7
28	Cc1cc(Cl)ccc1NC(=O)Cn1nnn(-c2cccs2)c1=O	6	-2
29	COc1ccc(Cl)cc1-c1ncccc1C(=O)N1C[C@H]2CC[C@@H]1C2	26	15
30	Cc1cc(C)n(-c2nc(N/N=C\c3cccnc3)nc(Nc3ccccc3)n2)n1	-1	-7
31	O=C1NC(=Nc2ccccc2Cl)S/C1=C/c1cccc(C(=O)O)c1	-13	-20
32	O=C(O)CN1C(=O)/C(=C\c2ccccc2C(F)(F)F)SC1=S	-5	-11
33	C=CCNC(=O)CSc1nc(=O)n2cc(C)ccc2n1	4	2
34	COCCNCc1nc2scc(-c3ccccc3)c2c(=O)[nH]1	23	15
35	COCCN1C(=O)N(Cc2ccccc2)C2(CCN(Cc3nccs3)CC2)C1=O	12	0
36	COc1cc(-c2nc3ccccn3c2NC(C)(C)CC(C)(C)C)ccc1OC(=O)c1ccccc1Br	18	23
37	CCNC(=O)CN(CC)C(=O)CNC(=O)CCc1ccc(C)cc1	5	3
38	O=C(Nc1nnc(-c2ccc3c(c2)OCCO3)o1)c1ccc([N+](=O)[O-])cc1	-4	-6
39	c1ccc2c(-c3cc(NC4CCNCC4)nc4[nH]ccc34)ccnc2c1	2	0
40	Cc1[nH]cnc1C(=O)N1CCc2c(nc(-c3ccccn3)nc2N(C)C)C1	-1	-2
41	Oc1ccc2c(Cc3ccc(Cl)cc3)noc2c1	-3	-5
42	Cc1ccc(-n2c(SCC(=O)NC(C)C)nc3ccccc3c2=O)nc1	5	-1
43	CCCn1c(=O)[nH]c(=O)c2c1nc(-c1ccc(OC)c(Br)c1)n2CCOC	-1	0
44	Cc1nc2n(n1)C(=O)C(C(c1ccco1)N1CCN(c3cccc(Cl)c3)CC1)S2 (stereo not drawn)	6	1
45	CCOc1ccc(CN(C)CC(=O)NC(=O)c2ccc(C(C)(C)C)cc2)cc1	-4	-5
46	CCCCN1CCN(C(=O)c2cccc(-n3cnnc3)c2)CC1=O	2	2
47	NS(=O)(=O)c1ccc(NC2=NS(=O)(=O)c3ccccc32)cc1	17	10
48	COc1ccc(C)cc1N1C(=O)C(c2c(C)[nH]n(-c3cccc(Cl)c3)c2=O)=C(N2CCCC2)C1=O	2	14
49	O=S(=O)(c1ccccc1OC(F)(F)F)N(CC1CCOC1)C1CC1 (stereo not drawn)	11	7
50	CC1(C)C2(C(=O)N3CCN(c4nccc(-c5ccco5)n4)CC3)CC[C@@]1(C)C(=O)O2	23	21
51	Cn1nnc2c(Nc3ccccc3Cl)ncnc21	11	6
52	C=CCNC(=O)N1CCC2(CC1)[C@@H](C(=O)OCC)[C@@H](O)C(=O)N2C(C)C	5	20
53	Oc1ccc(-c2cn3c(n2)SCC3)cc1	10	11
54	O=[N+]([O-])c1ccccc1CN1CCCn2cccc2C1c1cc(F)c(F)cc1F (stereo not drawn)	18	24
55	CC(C)c1cc(C2CCN(C(=O)c3cccc(N4CCNC4=O)c3)CC2)[nH]n1	-2	-13
56	COc1cccc(-c2nnc3ccc(OCCNC(=O)c4sc(C)nc4C)nn23)c1	-10	-15
57	CCOCCOc1nc(-c2cccc(C(F)(F)F)c2)n(-c2ccc(NC(=O)C3CCC3)cc2)n1	6	7
58	O=C(NCc1cccs1)N1CCN(c2nc3ccccc3[nH]2)CC1	0	0
59	C=CCN1CC(COc2ccc(OC)cc2)Oc2ncccc2C1=O (stereo not drawn)	-4	10
60	COc1ccccc1N1CCN(Cc2cc(=O)c(OCC(N)=O)co2)CC1	1	0

Taken from above:
entry 60 – NPYLR7 ag max-min = 0
entry 49 – NPYLR7 ag = 11
entry 58 – NPYLR7 ag max-min = 0
entry 7 – NPYLR7 ag max-min = -3
entry 4 – NPYLR7 ag max-min = -3
entry 43 – NPYLR7 ag max-min = 0
entry 34 – NPYLR7 ag max-min = 15

(cont.)
entry	SMILES	NPYLR7 ag	NPYLR7 ag max-min
61	COc1ccc(CN(C)C(=O)CCN2CCCCO2)c2cccnc12	6	-2
62	CC(Sc1n[nH]c2nc3ccccc3n12)C(=O)c1c[nH]c2ccccc12 (stereo not drawn)	1	-1
63	Cc1cc(NC(=O)C2CC3CCCC(C2)C3=O)ccc1N1CCCC1 (stereo not drawn)	11	10
64	Cc1c(CN(C)Cc2cn[nH]c2C(=O)O)cnn1C	-5	-5
65	COc1ccc(CCn2c3c(c(=O)[nH]c2=O)C(NC(=O)C(C)(C)C)(C(F)(F)F)C(=O)N3)cc1OC (stereo not drawn)	-9	-15
66	COC(=O)C(C)OC(=O)c1nc2nccc(C)n2n1 (stereo not drawn)	-1	-2
67	CN(C)c1ccc(N2C(=O)CSC2c2cccc(NC(=O)Cc3ccccc3)c2)cc1 (stereo not drawn)	13	5
68	Cc1cc(C)n(NC2=CC(=O)CC(C)(C)C2)c(=O)c1C#N	3	0
69	O=c1[nH]c(Nc2nc3ccccc3o2)nc(O)c1Cc1ccccc1	11	11
70	COc1ccc(CN(Cc2ccc(F)cc2)CC(O)Cc2ccccc2)cc1OC (stereo not drawn)	16	27
71	Cc1cccc(S(=O)(=O)N[C@@H]2CCCCC2NC(=O)[C@H]2CCCN2)c1 (stereo partly drawn)	-1	7
72	CC1CN(Cc2ncc(Cl)n2C)CC(C)(C)O1 (stereo not drawn)	-3	-6
73	c1cc(-c2nc3ccc(Cc4ccc5nc(-c6ccncc6)[nH]c5c4)cc3[nH]2)ccn1	5	2
74	CCN1CCN(c2nc(Nc3cccc(C)c3)c3cnn(-c4ccccc4)c3n2)CC1	0	0
75	Cc1noc(C)c1CN1CCN(C(=O)CCc2nc(C(C)(C)C)no2)CC1	2	0
76	O=C(NCCCNC(=O)[C@H]1CCCN1S(=O)(=O)c1cccc2ccccc12)c1ccccc1	27	26
77	COc1ccccc1-c1cc(C(=O)O)c2[nH]c(-c3ccccc3)nc2n1	-3	-4
78	CC(=O)Nc1sc(N/N=C\c2cccc(Cl)c2)nc1-c1cccs1	-2	-4
79	CCC1(C)NC(=O)N(NC(=O)CN2CC(C)Oc3cc(C)c(Br)cc32)C1=O (stereo not drawn)	-3	-8
80	COCCn1c(C)c(C)n2c3c(=O)n(Cc4ccccc4)c(=O)n(C)c3nc12	-2	1

Some of the entries so far, with two lines to a compound:
Each structure is followed by: NPYLR7 ag	NPYLR7 ag max-min
64. Cc1c(CN(C)Cc2cn[nH]c2C(=O)O)cnn1C
    -5	-5
61. COc1ccc(CN(C)C(=O)CCN2CCCCO2)c2cccnc12
    6	-2
66. COC(=O)C(C)OC(=O)c1nc2nccc(C)n2n1 (stereo not drawn)
    -1	-2
73. c1cc(-c2nc3ccc(Cc4ccc5nc(-c6ccncc6)[nH]c5c4)cc3[nH]2)ccn1
    5	2

(further entries)
entry	SMILES	NPYLR7 ag	NPYLR7 ag max-min
81	COc1ccc(CN(Cc2cccc(F)c2)C(=O)CC2=CCNCC2)cc1	-5	-9
82	CN(CCc1ccccn1)S(=O)(=O)c1sc2c(c1C(=O)O)CCNC2	0	0
83	Cc1cc(=S)[nH]c2ccccc12	2	-1
84	COc1cccc(CSc2nnc(CNC(=O)C(Cl)Cl)n2-c2ccc(Cl)cc2Cl)c1	9	12
85	Cc1cc(C)nc(SCc2cc(=O)c(OC(=O)c3ccco3)co2)n1	-13	-7
86	Cc1ccc(Cl)c(OCCCOc2cccc3cccnc23)c1	3	2
87	COc1ccc(N2CCN(C(=O)c3ccc(F)cc3)C(C)C2=O)cc1OC (stereo not drawn)	-8	-1
88	Cc1ccc(NS(=O)(=O)N2CCCCC2)cc1Cl	1	-1
89	CC(C)Nc1ncccc1C(=O)NCCC(c1ccccc1)c1ccccc1	-2	-4
90	Cc1cnc(CNS(=O)(=O)c2ccc(-c3ccccc3)cc2)o1	-5	-6
91	CCOC(=O)C1=C(O)/C(=C\c2cc(O)ccc2O)SC1=Nc1cccc(C(F)(F)F)c1	6	3
92	COc1ccc(C(=O)N2CCCC3(CC2)CN(C)C(=O)O3)cc1Cl (stereo not drawn)	5	-5
93	N#Cc1nc(Cl)c(Cl)c(Cl)c1Cl	-3	-4
94	CC(C)Oc1nnc(SC(C)C(=O)N2CCCC(C(N)=O)C2)s1 (stereo not drawn)	-4	-7
95	CCCc1nnc2c3c4c(sc3ncn12)CCCC4	9	5
96	COc1ccc(Cl)cc1CN1C(=O)C(C)(C)ON=C1c1ncccc1C	-6	-6
97	CCN(CC)c1ccccc1CO	24	18
98	COc1cccc(C(=O)NC(C(=O)N2CCCCC2)C2CCN(C(=O)c3cccc(C)c3)CC2)c1 (stereo not drawn)	-3	-2
99	Cc1c(C(=O)N2CCCC3(CC2)CN(C)C(=O)O3)sc2ccccc12 (stereo not drawn)	11	9
100	CC1=NOC(C(=O)NCc2cccnc2N(C)CCc2ccccn2)C1 (stereo not drawn)	2	2
101	C=CCN(CC#Cc1ccccc1)Cc1cccc2c1OCO2	5	2
102	CCSc1nnc(SCC(=O)NC(=O)NC2CCCC(C)C2C)s1 (stereo not drawn)	0	3
103	O=C(CC1COCCN1)NCc1scnc1-c1ccccc1 (stereo not drawn)	-4	-5
104	O=C(NC(c1ccc(-c2ccccc2)cc1)c1cnccn1)C1CCN(CCOc2ccc(F)cc2)CC1 (stereo not drawn)	3	3
105	COc1ccc(-c2cnc3ncnn3c2N2CCN(Cc3ccc(F)cc3)CC2)cc1	14	5
106	C=CCN(C1CCS(=O)(=O)C1)S(=O)(=O)c1ccc(C(=O)NC)cc1 (stereo not drawn)	1	14
107	CCNC(=O)N(Cc1ccco1)Cc1nccn1Cc1ccccc1Cl	18	24
108	CC1Cc2ccccc2N1C(=O)CCNC(=O)OC(C)(C)C (stereo not drawn)	-2	-1
109	O=C(c1n[nH]c2c1CCC2)N1CCC2(CC1)C(=O)Nc1ccccc12	5	4
110	COCCc1noc(CN(C)C(=O)c2cccc(N3CCCC3=O)c2)n1	4	5
111	Cn1cc(C(=O)Nc2ccc(C(F)(F)F)cc2)c2[nH]c(=O)n(-c3ccc(Cl)cc3)c(=O)c21	3	1
112	CC(C)C(C)(O)C#CCN1CCOCC1 (stereo not drawn)	4	5
113	Cc1nc2sc3c(c2c(=O)[nH]1)CCCCC3	1&0	6&6
114	Cc1ccc(-n2nnc3c(SCC(=O)N4CCCCCC4)ncnc32)cc1	11	9
115	O=C(Cn1cc(C(F)(F)F)ccc1=O)NC(=O)NC1CCCC1	9	8
116	CN(Cc1cn[nH]c1-c1ccc(F)cc1)C(=O)Cc1c[nH]c2ccccc12	-4	-8
117	COc1ccccc1-n1cc(C(=O)N2CCC3(CCCN(C)C3=O)C2)cn1 (stereo not drawn)	-1	-5
118	C=CCn1c(=O)c2c(nc3n(-c4ccc(CC)cc4)c(C)cn23)n(C)c1=O	10	5
119	Cc1ccc(C(C)NC(=O)CN(Cc2cnn(C)c2)C2CC2)cc1 (stereo not drawn)	-4	48
120	COc1cc(C)ccc1OCC(=O)NS(=O)(=O)c1ccc(F)cc1F	-2	-3

Screening results as filed in PubChem BioAssay.

This is a subset (hit frequency here may not be typical).
